High-throughput results deposited in PubChem by National Center for Advancing Translational Sciences (NCATS).
VDR inh: vitamin D3 receptor (human) inhibition. 0.93% of 400,000 active. VDR-SRC2-3 peptide fluorescence polarization, 2 h. Potency, µM, inactives show max response, negative = inhibition, actives largely listed as inhibitors. AID 504847. P11473; active = well fitted inhibition curve with a large enough effect; inconclusive = small, poorly fitted or top-dose-only effect, or another doubt; inactive = no such curve, though single readings can be large or run the other way; also: series mostly up to about 120 µM
Target sequence (P11473 whole entry, looked up): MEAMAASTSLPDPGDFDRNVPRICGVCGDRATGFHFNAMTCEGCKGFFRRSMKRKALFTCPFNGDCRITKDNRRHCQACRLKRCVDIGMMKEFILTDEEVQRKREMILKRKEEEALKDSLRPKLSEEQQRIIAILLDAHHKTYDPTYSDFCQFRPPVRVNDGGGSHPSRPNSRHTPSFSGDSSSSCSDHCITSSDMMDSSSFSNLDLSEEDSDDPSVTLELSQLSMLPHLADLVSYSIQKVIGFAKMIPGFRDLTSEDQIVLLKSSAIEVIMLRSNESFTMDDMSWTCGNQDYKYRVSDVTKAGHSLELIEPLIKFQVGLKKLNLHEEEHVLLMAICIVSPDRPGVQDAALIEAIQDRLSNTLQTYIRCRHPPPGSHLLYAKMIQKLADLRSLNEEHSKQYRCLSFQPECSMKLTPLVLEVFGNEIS
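Two reagent solutions held at 4 deg C in the dark were dispensed, compounds pinned at 23 nl, and the mixture incubated 2 h at room temperature. Read-out: fluorescence polarization of VDR–SRC2-3 peptide binding.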
The depositor's hits bear a star; ? = inconclusive; & = joins results of further samples. % is scaled to controls: 0 for no effect and ±100 for the full control effect; potency is read from the fitted curve at half-maximal effect. Not all compounds are listed; rates above refer to the full screens.

VDR inh	canonical_smiles
-6%	COc1ccccc1/C=C/CN1CCNC(=O)C1CC(=O)NCCc1cnccn1 (configuration not stated)
-11%	Cc1cc2nc3c(=O)[nH]c(=O)nc-3n(C[C@H](O)[C@H](O)[C@H](O)COP(=O)(O)OP(=O)(O)OC[C@H]3O[C@@H](n4cnc5c(N)ncnc54)[C@H](O)[C@@H]3O)c2cc1C
-13%	CCN1C(=O)C(C(=O)NC(C)c2ccccc2)C2CC1(C)Oc1ccccc12 (configuration not stated)
4%	COc1ccc(NS(=O)(=O)c2ccc3nc(COc4ccc(Cl)c(C)c4)[nH]c3c2)cc1
-8%	O=C(O)c1ccc(-n2c(-c3cc(C4CC4)[nH]n3)n[nH]c2=S)cc1
-2%	Cc1ccccc1N(C(=O)CS(=O)CC(=O)Nc1ccc(F)cc1)C(C)C(=O)NC(C)(C)C (configuration not stated)
-16%	COc1ccc2ccccc2c1/C=N/NC(=O)CC1(C)OCCCO1
-20%	CC(C)(CNCc1ccccc1)NS(=O)(=O)c1ccc(Cl)cc1
-1%	C/C=C(\C)C(=O)Nc1cccc(C2=NOC3(C2)C[C@H](C(N)=O)N(C(=O)C(c2ccccc2)c2ccccc2)C3)c1 (some centres not stated)
8%	CCOC(=O)c1sc2ncnc(NCc3ccco3)c2c1C
6%	Cc1ccc(C(=O)c2cn(Cc3cc(C)ccc3C)c3nc(C)ccc3c2=O)cc1
5%	CC1=CC(=O)C2=C(C)CC[C@@H]3[C@H](OC(=O)[C@H]3C)[C@@H]12
-21%	COCCNC(=S)N(CCc1c(C)[nH]c2ccc(C)cc12)Cc1cccnc1
-4%	COc1ccccc1NC(=O)c1c(O)c2ccccc2[nH]c1=O
?	CC1=CC(C)(C)N2C(=O)C(=Nc3ccc(O)cc3)c3cccc1c32
-6%	CNS(=O)(=O)c1ccc2c(c1)oc(=O)c1cc(S(=O)(=O)NC)ccc12
9%	Cc1c(NC(=O)c2c(N)sc3c2CCCC3)c(=O)n(-c2ccccc2)n1C
-9%	Cc1ccc(-n2nc(CO)c(C(=O)NC(C)c3ccccc3)n2)cc1C (configuration not stated)
0%	O=S1(=O)c2cccc3cccc(c23)N1CCCN1CCN(c2ccc(F)cc2)CC1
3%	CC(C)(C)c1ccccc1NC(=S)NCc1ccccc1
-7%	COc1ccccc1OCCNC(=O)CCNC(=O)c1ccccc1OC
-1%	CSc1ccc(/C=N/Nc2nc(C)cc(=O)[nH]2)cc1
-24%	O=C(COC(=O)Cc1ccc(Cl)cc1)Nc1cc(S(=O)(=O)N2CCOCC2)ccc1N1CCCC1
20%	CCCOC(=O)Cn1cnc2scc(-c3ccc(OC)cc3)c2c1=O
3%	O=C(O)c1ccc(S(=O)(=O)c2ccc3c(c2)C(=O)N(NC(=O)c2ccncc2)C3=O)cc1
-10%	COc1cccc(NC(=O)c2nc3nc(C)cc(C(F)F)n3n2)c1
-10%	CCNS(=O)(=O)c1ccc(CCC(=O)N2CCN(Cc3ccccc3)CC2)cc1
3%	CCOc1ccccc1N(CC)C(=O)c1noc2c1COc1ccc(C)cc1-2
-15%	CC(=O)Nc1cc(C(=O)OCc2cccc([N+](=O)[O-])c2)ccc1C
12%	CCCN(CCC)CCCNC(=O)c1nn(C)c2c1CS(=O)(=O)c1ccccc1-2
8%	COc1ccccc1C(=O)Nc1c2c(nn1-c1ccc(Cl)cc1)CS(=O)(=O)C2
-9%	CC(=O)N1c2ccc(S(=O)(=O)N(C)Cc3ccco3)cc2CC1C (configuration not stated)
17%	COc1cc(NS(=O)(=O)c2ccc(NC(=O)/C(=C\c3ccccc3OC)NC(=O)c3ccccc3)cc2)nc(OC)n1
-7%	O=C(Nc1cccc(F)c1)NC1CCCCCCC1
2%	COC(=O)CN1C(=S)N(c2ccc(F)cc2)C(=O)C1CC(=O)Nc1ccc(F)cc1 (configuration not stated)
13%	Cc1ccccc1C(=O)NC(=S)NCc1ccccc1
10%	CCOC(=O)C1CCN(S(=O)(=O)c2cccc(-c3cn4cc(C)ccc4n3)c2)CC1
8%	O=C(Cc1ccc(N2CCNC2=O)cc1)N1CCCC(Nc2cccc(F)c2)C1 (configuration not stated)
0%	O=C(COc1ccccc1[N+](=O)[O-])N(Cc1ccco1)C1CCS(=O)(=O)C1 (configuration not stated)
-9%	COc1cccc(C2=NOC(C(=O)Nc3cccnc3Cl)C2)c1 (configuration not stated)
-21%	Cc1ccc(-n2c(C)cc(/C=N/NC(=O)CN(c3ccc(C)cc3C)S(C)(=O)=O)c2C)cc1
-4%	CN(C)c1nc2sc3c(c2c(=O)n1C)CC(C)(C)OC3
1%	CCN(CC(=O)N1CCc2ccccc2C1)S(=O)(=O)c1ccc2ccccc2c1
17%	CC1Cc2ccccc2N1c1ncnc(N)c1[N+](=O)[O-] (configuration not stated)
?	CCOC(=O)N1CCc2c(sc(N)c2C#N)C1
11%	CCCCn1c(CCNC(=O)c2cccs2)nc2ccccc21
6%	CCOc1ccccc1NC(=O)C1CC2CCCC(C1)C2=O (configuration not stated)
-4%	CCC(C)Nc1nc(N)c([N+](=O)[O-])c(Nc2cc(OC)ccc2OC)n1 (configuration not stated)
-4%&2%	c1ccc(CCC2=NCCn3cccc32)cc1
4%	O=C(Cn1c(=O)c2c(ncn2Cc2ccccc2)n(Cc2ccccc2)c1=O)NC1CC1
27%	COc1ccc(CCNS(=O)(=O)c2ccc3c(c2)NC(=O)C(C)S3)cc1OC (configuration not stated)
16%	O=C(NN1C(=O)C2C(c3ccccc3)C=CC(c3ccccc3)C2C1=O)c1ccncc1 (configuration not stated)
-20%	NC(=O)C[n+]1cccc(CNC(=O)c2ccc(OC(F)F)cc2)c1
16%	CC(=O)OCCNc1cc(SC(C)C)c2nonc2c1[N+](=O)[O-]
6%	CCOC(=O)[C@@H]1[C@H]2COc3cc(OC)ccc3[C@H]2N2C(=O)N(c3cccc(Cl)c3)C(=O)[C@]12C
-2%	COc1ccccc1-c1nc(C(=O)NCC2CCCO2)cc2c1[nH]c1ccccc12 (configuration not stated)
-11%	O=C(O)COc1ccc(/C=N/O)cc1Br
?	S=C1NC2=C(CCC/C2=C\c2ccc(Cl)cc2)C(c2ccc(Cl)cc2)N1 (configuration not stated)
-11%	COc1ccccc1CC(=O)Nc1ccc2c(c1)CCC2
-6%	COc1ccc(/C(N)=N/OC(=O)Cc2ccc(C)cc2)cc1OC

Some of the entries so far, as tab-separated lines:
Structure	VDR inh
CCOc1ccccc1NC(=O)C1CC2CCCC(C1)C2=O (configuration not stated)	6%
COc1cccc(NC(=O)c2nc3nc(C)cc(C(F)F)n3n2)c1	-10%
CCCOC(=O)Cn1cnc2scc(-c3ccc(OC)cc3)c2c1=O	20%
CC1=CC(C)(C)N2C(=O)C(=Nc3ccc(O)cc3)c3cccc1c32	?

Five entries from above, arranged by length of the SMILES, rising.
VDR inh	canonical_smiles
6%	CCOc1ccccc1NC(=O)C1CC2CCCC(C1)C2=O (configuration not stated)
-4%	CN(C)c1nc2sc3c(c2c(=O)n1C)CC(C)(C)OC3
-20%	NC(=O)C[n+]1cccc(CNC(=O)c2ccc(OC(F)F)cc2)c1
-2%	COc1ccccc1-c1nc(C(=O)NCC2CCCO2)cc2c1[nH]c1ccccc12 (configuration not stated)
10%	CCOC(=O)C1CCN(S(=O)(=O)c2cccc(-c3cn4cc(C)ccc4n3)c2)CC1

(list continues)
VDR inh	canonical_smiles
4%	CCOC(=O)N1CCN(C(=O)COC(=O)COc2c(C)cc(C)cc2C)CC1
-2%	Cc1nn(CCCC(=O)NCc2ccc(OC(C)C)cc2)c(=O)c2c1sc1ccccc12
-5%	COC(=O)c1cccnc1-n1c(=O)c2cccnc2n(CC(=O)Nc2ccc(Br)cc2)c1=O
-7%	Cc1ccc(NC(=O)CO/N=C(\N)c2ccccc2)cc1C
8%	Cc1ccc[n+](C(C(=S)NCc2ccco2)=C([O-])c2ccccc2Cl)c1
-5%	CN(C)C(=O)c1nc2ccccc2s1
-12%	C[C@H](CO)N1C[C@H](C)[C@@H](CN(C)S(=O)(=O)c2ccccc2)Oc2ccc(NC(=O)CCC(F)(F)F)cc2C1=O
1%	CCO/N=C/c1ccc(OC)c(Oc2nc(OC)cc(OC)n2)c1
3%	Cc1cc(C)c(NC(=O)c2ccc3nc(C(C)C)oc3c2)c(C)c1
11%	CCOC(=O)c1cnc(SCC(=O)Nc2ccc3c(c2)OCCO3)nc1N
-5%	Cn1c(CNC(=O)c2ccco2)nnc1SCC(=O)c1ccc(Br)cc1
-10%	CCC(C)(C)NC(=S)Nc1ccc(-c2nc3ccc(C)cc3s2)cc1
2%&-5%	COc1ccc(NC(=O)CN(C)S(=O)(=O)c2ccc3c(c2)c(=O)n(C)c(=O)n3C)cc1
-15%	CCn1c(CNC(=O)C23CC4CC(CC(C4)C2)C3)nnc1SCC(=O)Nc1ccccc1
1%	Cc1ncsc1C(=O)N1CCCC(CNS(=O)(=O)c2cccs2)C1 (configuration not stated)
-3%	Cc1noc(C)c1COc1ccc(C(=O)NNC(=O)c2ccccc2O)cc1
-13%	CC1CCCN(c2ccc3nc4ccccc4c(=O)n3n2)C1 (configuration not stated)
-15%	COc1ccc(OC)c(CNn2c(-c3cccc(C)c3)nc3ccccc3c2=O)c1
1%	O=C(CN(C(=O)Cn1nnc(-c2ccc(F)cc2)n1)C1CCCC1)NC1CCCC1
-5%	N#CCCN(Cc1cccnc1)C(=S)NC1CC2C=CC1C2 (configuration not stated)
-2%	CCOCc1cnc(C)nc1NCC(=O)c1c(C)n(C)c2ccc(OC)cc12
-9%	CCn1c2ccc(/C(C)=N\O)cc2c2cc(/C(C)=N\O)ccc21
-21%	Cn1nc(-c2ccccc2F)c2cc(C(=O)NCCc3ccc(Cl)cc3)sc21
0%	O=C(Cc1ccc(F)cc1)c1ccc(O)cc1O
4%	O=c1c2cccnc2[nH]c(=S)n1CCCN1CCN(c2ccc(F)cc2)CC1
-1%	CCN(CC(=O)NC(C)(C)C)C(=O)C(c1ccccc1)c1ccccc1
-10%	Cc1ccc(C)c(OCc2cc(C(=O)N3CCC(N4CCCC(O)C4)CC3)no2)c1 (configuration not stated)
6%	CC(C)C(CCNC(=O)CN1C(=O)c2ccccc2C1=O)c1ccco1 (configuration not stated)
-7%	CC(C)c1cc(NCCOCCO)n2c(nc3ccccc32)c1C#N
1%	COC(=O)/C(=C1/Oc2ccc(C)cc2S1)C(F)(F)F

Quoted from the listing:
VDR inh result of COc1ccc(NS(=O)(=O)c2ccc3nc(COc4ccc(Cl)c(C)c4)[nH]c3c2)cc1 = 4%
VDR inh result of COc1ccccc1CC(=O)Nc1ccc2c(c1)CCC2 = -11%
VDR inh result of Cc1ccc(NC(=O)CO/N=C(\N)c2ccccc2)cc1C = -7%
VDR inh result of Cc1ccc(C(=O)c2cn(Cc3cc(C)ccc3C)c3nc(C)ccc3c2=O)cc1 = 6%

Remaining list, next part:
VDR inh	canonical_smiles
-7%	COc1ccc(NS(=O)(=O)c2ccc(C)c(C(=O)NCC(c3ccco3)N(C)C)c2)cc1 (configuration not stated)
0%	CN1CCN(c2oc(Cc3cccc4ccccc34)nc2C#N)CC1
10%	CC(C)(C)OC(=O)N1CCN(c2ccc(NC(=O)Cn3nnc(-c4ccccc4)n3)cc2)CC1
-11%	CC(C)(C)OC(=O)C[C@H]1C/C=C\C[C@@H](CC(=O)N[C@H](CO)Cc2ccccc2)C(=O)NC[C@H](c2ccccc2)OC1=O
12%	Cc1cccc(NC(=S)N2CCN(c3ccccc3F)CC2)c1C
-3%	Cc1coc2cc3oc(=O)c(CC(=O)N4CCCCC4)c(C)c3cc12
?	Cc1ccc(-c2csc3nc(C)n(-n4c(C)ccc4C)c(=O)c23)o1
-17%	CCOCCCn1c(=N)c(C(=O)NCc2cccnc2)cc2c(=O)n3cc(C)ccc3nc21
-11%	COc1cccc(CNC(=O)c2nnn(CC(=O)Nc3ccc(C)c(C)c3)c2N)c1
-3%&5%	O=C(NCc1ccc(Cl)cc1)C1CCN(S(=O)(=O)c2ccc(F)cc2)CC1
-18%	N#Cc1ccccc1NC(=O)Nc1cccs1
-3%	CN(Cc1ccccc1)C1(CNC(=O)CCC(F)(F)F)Cc2ccccc2C1
-10%	O=C(c1cc(COc2ccc(F)cc2Cl)on1)N1CCCCCC1
-19%	CCCCCc1cc(=O)oc2c(C(CCN3CCCC(C)C3)c3ccc4c(c3)OCO4)c(OC)cc(OC)c12 (configuration not stated)
10%	CCOC(=O)[C@@H]1[C@H]2COc3cc(OC)ccc3[C@@H]2N2C(=O)N(c3ccc(F)cc3)C(=O)[C@@]12C
3%	COc1ccc(NCc2nnc(-c3ccccc3)o2)cc1
-4%	CCN(CC)c1ccc(C=NNc2ccc([N+](=O)[O-])cn2)cc1
13%	O=C(Nc1ccon1)c1cc2c(s1)CCCC2
-20%	CCn1ncc(/C=N/NC(=O)c2ccc3c(c2)OCO3)c1C
?	CC1=NN(c2ccc(Cl)cc2)C(=O)C1
-8%	CCCCCCN(C(=O)CCCN1C(=O)NC(c2ccc([N+](=O)[O-])cc2)C(C(=O)OCc2ccccc2)=C1C)C(C)C(=O)NCCCC (configuration not stated)
7%	CCS(=O)(=O)N1CCN(c2cccc(C)c2C)CC1
-2%	CC1(c2ccc3ccccc3c2)NC(=O)N(CC(N)=O)C1=O (configuration not stated)
0%	Cc1cccc(NC(=O)Nc2ccc(C)cc2Br)c1
-4%	Nc1nc(SCc2ccccc2Cl)n[nH]1
11%	CCCn1c(N)cc(=O)n(C)c1=O
8%	COCCN(C(=O)c1ccco1)C(C(=O)NC1CCCC1)c1cccs1 (configuration not stated)
6%	Cc1ccc(S(=O)(=O)Nc2ccc(O)c3cccnc23)cc1
7%	CCN1C[C@@H]2[C@@H]3C(=O)N(C)C(=O)[C@@H]3[C@](Cc3ccccc3)(C1=O)N2C(=O)c1ccc(Cl)c(Cl)c1
-30%	CCSc1nc2n(n1)C(c1cccc(F)c1)C1=C(CCCC1=O)N2 (configuration not stated)
-20%	CSc1ccccc1OCc1cc(C(=O)N2CCSCC2)no1
